# From PubChem
# Env fusion inh: inhibitors of HIV-1 Env-driven cell-cell fusion, primary screen, HeLa-JRFL effector, CEM21 target cells, luciferase. inhibition, % at 12.3 µM. hit rate 1.1% among 360,000;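 active = mean replicate inhibition score of at least 50 and every replicate individually at or above 50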;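 note: 0% = plate neutral controls and 100% = maraviroc near 300 nM; one replicate is shown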
# Yeast UUG start: modulators of yeast start codon fidelity, primary screen, whole organism, S. cerevisiae, single point, plate reader | activity score, % at 18.7 µM | hit rate 0.13% among 350,000 | AID 602363, 2012 | S. cerevisiae UUG-firefly luciferase reporter, luminescence/redox ratio;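 active = replicate mean at a twofold rise or more, about +100% in these data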;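 note: firefly luciferase made from a UUG start codon reports start codon fidelity; reporter light over untreated wells divided by growth signal over untreated wells; some hits fall short of that in this replicate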
# Numbers without * were called inactive; & = joins results of further samples; [ ] = another dose, or the depositor's remark. These rows are one share of the data; count on the stated rates, not on these rows.
molecule	Yeast UUG start	Env fusion inh
C[C@@H]1CCCCO[C@@H](CN(C)S(C)(=O)=O)[C@H](C)CN([C@H](C)CO)C(=O)c2cc(NC(=O)NC3CCCCC3)ccc2O1	22.1	3.8[16.7 µM]
C[C@@H]1CCCCO[C@@H](CN(C)Cc2ccc(Cl)c(Cl)c2)[C@H](C)CN([C@H](C)CO)C(=O)c2cc(NC(=O)Nc3ccc(F)cc3)ccc2O1	-8.0	54.0[16.7 µM]
C[C@H](CO)N1C[C@H](C)[C@H](CN(C)Cc2ccncc2)Oc2ncc(-c3cccc(C(F)(F)F)c3)cc2C1=O	-0.8	8.0[16.7 µM]
COc1ccc(S(=O)(=O)N(C)C[C@@H]2Oc3c(NS(=O)(=O)c4ccccc4)cccc3C(=O)N([C@@H](C)CO)C[C@@H]2C)cc1	11.9	-10.0[16.7 µM]
COc1ccc(NC(=O)Nc2ccc3c(c2)CC(=O)N([C@@H](C)CO)C[C@H](C)[C@@H](CN(C)S(=O)(=O)c2ccc(OC)cc2)O3)cc1	-2.7	5.8[16.7 µM]
COc1ccc(CN(C)C[C@H]2OCCCC[C@H](C)Oc3ccc(NC(=O)Nc4c(C)noc4C)cc3C(=O)N([C@@H](C)CO)C[C@@H]2C)cc1	9.0	-27.8[16.7 µM]
C[C@@H]1CN([C@@H](C)CO)C(=O)c2cccc(NC(=O)Nc3ccc(C(F)(F)F)cc3)c2O[C@H]1CN(C)C(=O)Nc1ccc2c(c1)OCO2	17.9	-33.6[16.7 µM]
COc1ccc(CN(C)C[C@H]2OCCCC[C@H](C)Oc3ccc(NS(=O)(=O)c4ccccc4)cc3C(=O)N([C@@H](C)CO)C[C@H]2C)cc1	16.8	-3.8[16.7 µM]
O=C(NC1CCCCC1)N[C@@H]1CC[C@@H](CCNS(=O)(=O)c2ccc(F)cc2)O[C@@H]1CO	7.7	25.8[16.7 µM]
CCC(=O)N(C)C[C@H]1Oc2cc(-c3ccc(OC)cc3)ccc2S(=O)(=O)N([C@H](C)CO)C[C@@H]1C	5.4	-0.7[16.7 µM]
C[C@@H]1CN([C@H](C)CO)C(=O)Cc2cc(NC(=O)Cn3cnnn3)ccc2O[C@@H]1CN(C)Cc1ccc(C(=O)O)cc1	2.4	-29.5[16.7 µM]
O=C(C[C@H]1C=C[C@H](NC(=O)C2CCOCC2)[C@H](CO)O1)Nc1ccc(-c2ccccc2)cc1	-2.3	5.6[16.7 µM]

# Next part; it opens with the 2 that closed the last part.
molecule	Yeast UUG start	Env fusion inh
C[C@@H]1CN([C@H](C)CO)C(=O)Cc2cc(NC(=O)Cn3cnnn3)ccc2O[C@@H]1CN(C)Cc1ccc(C(=O)O)cc1	2.4	-29.5[16.7 µM]
O=C(C[C@H]1C=C[C@H](NC(=O)C2CCOCC2)[C@H](CO)O1)Nc1ccc(-c2ccccc2)cc1	-2.3	5.6[16.7 µM]
O=C(C[C@H]1C[C@@H]2c3cc(NC(=O)C4CCOCC4)ccc3O[C@@H]2[C@H](CO)O1)NC1CCCC1	102.1*	-22.5[16.7 µM]
CN(C)C(=O)c1ccc(-c2ccc([C@H]3[C@@H](C#N)N(C(=O)C4CCCC4)[C@H]3CO)cc2)cc1	13.8	6.2[16.7 µM]
COc1cccc(-c2cnc3c(c2)C(=O)N([C@H](C)CO)C[C@H](C)[C@H](CN(C)Cc2ccncc2)O3)c1	-9.3&-9.2	8.6&2.8[16.7 µM]
C[C@H](CO)N1C[C@H](C)[C@@H](CN(C)C(=O)C2CCCCC2)Oc2ncc(-c3cccnc3)cc2C1=O	-9.6	-3.9[16.7 µM]
Cc1ccc(S(=O)(=O)N(C)C[C@@H]2Oc3c(NS(=O)(=O)c4ccc(Cl)cc4)cccc3C(=O)N([C@@H](C)CO)C[C@H]2C)cc1	-2.8	-16.3[16.7 µM]
Cc1noc(C)c1S(=O)(=O)Nc1ccc2c(c1)CC(=O)N([C@@H](C)CO)C[C@@H](C)[C@@H](CN(C)Cc1ccc(C(F)(F)F)cc1)O2	9.8	23.3[16.7 µM]
C[C@H]1CCCCO[C@@H](CN(C)S(=O)(=O)c2ccccc2)[C@@H](C)CN([C@@H](C)CO)C(=O)c2cc(NC(=O)Nc3ccc(C(F)(F)F)cc3)ccc2O1	-12.4	16.2[16.7 µM]
COc1cccc(C#Cc2ccc([C@@H]3[C@@H](CO)N(C(=O)C4CCCCC4)[C@H]3C#N)cc2)c1	-9.5	31.6[16.7 µM]
Cc1ccc(S(=O)(=O)N(C)C[C@H]2OCCCC[C@@H](C)Oc3ccc(NS(=O)(=O)c4c(C)noc4C)cc3C(=O)N([C@@H](C)CO)C[C@H]2C)cc1	14.0	-0.9[16.7 µM]
C[C@@H]1CN([C@H](C)CO)S(=O)(=O)c2ccc(C#CC3CC3)cc2O[C@H]1CN(C)C(=O)c1ccncc1	27.0	6.2[16.7 µM]
COc1ccc(S(=O)(=O)N(C)C[C@@H]2Oc3ccc(NC(=O)C4CCCCC4)cc3CC(=O)N([C@@H](C)CO)C[C@H]2C)cc1	7.0	20.1[16.7 µM]
N#C[C@H]1[C@H](c2ccc(-c3ccccc3F)cc2)[C@@H](CO)N1C(=O)C1CCC1	-0.1	3.1[16.7 µM]
CC(C)NC(=O)N(C)C[C@@H]1OCCCC[C@@H](C)Oc2ccc(NC(=O)Nc3cccc4ccccc34)cc2C(=O)N([C@@H](C)CO)C[C@H]1C	-9.1	28.9[16.7 µM]
C[C@H]1CN([C@@H](C)CO)C(=O)Cc2cc(NS(C)(=O)=O)ccc2O[C@@H]1CN(C)Cc1ccc(C(=O)Nc2ccccc2N)cc1	-9.9	-13.9[16.7 µM]
NC(=O)[C@H]1[C@@H]2C(=O)O[C@@H](c3ccccc3)[C@@H](c3ccccc3)N2[C@@H](c2ccccc2OCCO)[C@]12C(=O)Nc1ccc(C#CC3(O)CCCCCC3)cc12	20.9	-36.6[16.7 µM]
C/C=C/c1cnc2c(c1)C(=O)N([C@@H](C)CO)C[C@H](C)[C@@H](CN(C)C(=O)c1cnccn1)O2	5.7	5.3[16.7 µM]
Cc1noc(C)c1S(=O)(=O)Nc1ccc2c(c1)C(=O)N([C@H](C)CO)C[C@H](C)[C@@H](CN(C)S(=O)(=O)c1cccs1)OCCCC[C@H](C)O2	1.6	-42.7[16.7 µM]
CO[C@@H]1CN(C)C(=O)c2ccc(NC(=O)Nc3ccccc3F)cc2OC[C@H](C)NC[C@@H]1C	-7.7	2.4[16.7 µM]
C[C@@H]1CN([C@H](C)CO)S(=O)(=O)c2ccc(C#CC3CC3)cc2O[C@@H]1CN(C)Cc1ccccn1	-13.6	22.2[16.7 µM]
COc1ccc(C#Cc2cnc3c(c2)C(=O)N([C@H](C)CO)C[C@H](C)[C@H](CN(C)S(=O)(=O)c2ccccc2)O3)cc1OC	7.7	-0.5[16.7 µM]
CC(C)NC(=O)Nc1ccc2c(c1)CC(=O)N([C@H](C)CO)C[C@H](C)[C@H](CN(C)S(=O)(=O)c1cn(C)cn1)O2	-10.1	-23.2[16.7 µM]
O=C(Nc1cc(F)ccc1F)N[C@@H]1C=C[C@H](CC(=O)N2CCc3ccccc3C2)O[C@@H]1CO	18.8	3.8[16.7 µM]
C[C@H]1CN([C@@H](C)CO)S(=O)(=O)c2ccc(-c3ccc(F)cc3)cc2O[C@@H]1CN(C)C(=O)C1CC1	4.2	10.3[16.7 µM]
O=C(C[C@@H]1CC[C@@H](NC(=O)c2cccc(F)c2)[C@H](CO)O1)NCc1ccccc1	-7.3	-18.2[16.7 µM]
C[C@H](CO)N1C[C@H](C)[C@@H](CN(C)Cc2ccc(C(=O)O)cc2)Oc2c(NC(=O)Nc3ccc(C(F)(F)F)cc3)cccc2C1=O	0.4	10.8[16.7 µM]
CC(=O)N(C)C[C@H]1Oc2ncc(C#CCc3ccccc3)cc2C(=O)N([C@H](C)CO)C[C@@H]1C	12.3	1.3[16.7 µM]
O=C(C[C@@H]1C=C[C@H](NC(=O)c2ccc(F)cc2)[C@H](CO)O1)NCCc1ccccc1	-10.0	8.9[16.7 µM]
O=C(N[C@H]1CC[C@H](CCNS(=O)(=O)c2cccc(Cl)c2)O[C@H]1CO)c1ccncc1	-6.4	-2.9[16.7 µM]
CN1CCN(C(=O)C[C@H]2C[C@H]3c4cc(NC(=O)Nc5ccccc5F)ccc4O[C@H]3[C@H](CO)O2)CC1	-9.8	-13.6[16.7 µM]
CC(=O)N(C)C[C@@H]1Oc2cc(-c3ccncc3)ccc2S(=O)(=O)N([C@@H](C)CO)C[C@@H]1C	-7.9	4.3[16.7 µM]
CC(C)NC(=O)Nc1ccc2c(c1)CC(=O)N([C@@H](C)CO)C[C@H](C)[C@@H](CN(C)C(=O)Nc1cccc3ccccc13)O2	-0.3	3.7[16.7 µM]
C[C@@H]1CN([C@@H](C)CO)C(=O)c2cccc(NC(=O)Nc3ccc4c(c3)OCO4)c2O[C@@H]1CN(C)C(=O)Nc1ccccc1	7.5	3.3[16.7 µM]
C[C@H](CO)N1C[C@H](C)[C@H](CN(C)Cc2ccc(C(=O)O)cc2)Oc2ccc(NS(=O)(=O)c3cccs3)cc2CC1=O	-13.0	12.7[16.7 µM]
CCCC#Cc1ccc2c(c1)O[C@@H](CN(C)C(=O)c1ccccn1)[C@H](C)CN([C@H](C)CO)S2(=O)=O	6.0	24.3[16.7 µM]
C[C@@H]1CN([C@@H](C)CO)C(=O)c2cc(NS(=O)(=O)c3cn(C)cn3)ccc2O[C@@H](C)CCCCO[C@@H]1CN(C)C(=O)CCCN(C)C	20.1	-37.8[16.7 µM]
Cc1noc(C)c1S(=O)(=O)N(C)C[C@@H]1OCCCC[C@H](C)Oc2ccc(NC(=O)NC(C)C)cc2C(=O)N([C@H](C)CO)C[C@@H]1C	27.0	-108.0[16.7 µM]
Cc1ccc(S(=O)(=O)Nc2ccc3c(c2)C(=O)N([C@H](C)CO)C[C@@H](C)[C@H](CN(C)S(=O)(=O)c2ccc(F)cc2)OCCCC[C@@H](C)O3)cc1	7.4	6.8[16.7 µM]
O=S(=O)(NCC[C@H]1CC[C@@H](NS(=O)(=O)c2ccccc2Cl)[C@H](CO)O1)c1ccc(F)cc1	-4.3	14.4[16.7 µM]
C[C@@H]1CN([C@@H](C)CO)C(=O)c2cc(NC(=O)CCC(F)(F)F)ccc2O[C@H]1CN(C)S(=O)(=O)c1ccc(F)cc1	5.3	13.8[16.7 µM]
C[C@@H]1CN([C@H](C)CO)C(=O)c2cc(NC(=O)c3ccncc3)ccc2O[C@H]1CN(C)Cc1ccccc1	-2.4	2.2[16.7 µM]
Cc1ccccc1S(=O)(=O)N[C@@H]1CC[C@@H](CCn2cc(Cc3ccccc3)nn2)O[C@@H]1CO	-1.7	1.3[16.7 µM]
C[C@H]1CN([C@@H](C)CO)C(=O)c2cc(NC(=O)Nc3ccccc3)ccc2O[C@@H]1CN(C)C(=O)Nc1ccccc1	-3.0	9.0[16.7 µM]
C[C@H]1CN([C@@H](C)CO)S(=O)(=O)c2ccc(C3=CCCCC3)cc2O[C@H]1CN(C)Cc1ccccc1	10.0	33.5[16.7 µM]
COc1cccc(NC(=O)N(C)C[C@H]2Oc3ncc(C#Cc4cccnc4)cc3C(=O)N([C@@H](C)CO)C[C@@H]2C)c1	1.4	4.3[16.7 µM]
CC(C)CC#Cc1ccc2c(c1)O[C@H](CN(C)C(=O)Nc1ccccc1F)[C@@H](C)CN([C@H](C)CO)S2(=O)=O	2.0	-23.8[16.7 µM]
COc1ccc(S(=O)(=O)Nc2ccc3c(c2)C(=O)N([C@H](C)CO)C[C@H](C)[C@@H](CN(C)S(=O)(=O)c2ccc(Cl)cc2)OCCCC[C@@H](C)O3)cc1	1.3	17.4[16.7 µM]
Cc1noc(C)c1NC(=O)Nc1ccc2c(c1)C(=O)N([C@@H](C)CO)C[C@H](C)[C@H](CN(C)Cc1ccc3c(c1)OCO3)OCCCC[C@H](C)O2	5.7	-8.7[16.7 µM]
CO[C@@H]1CN(C)C(=O)c2ccc(NC(=O)C3CCC3)cc2OC[C@@H](C)NC[C@H]1C	-7.9	2.8[16.7 µM]

# Structures above marked active in Yeast UUG start:
molecule	Yeast UUG start	Env fusion inh
O=C(C[C@H]1C[C@@H]2c3cc(NC(=O)C4CCOCC4)ccc3O[C@@H]2[C@H](CO)O1)NC1CCCC1	102.1*	-22.5[16.7 µM]

# More results follow.
molecule	Yeast UUG start	Env fusion inh
C[C@H](CO)N1C[C@H](C)[C@@H](CN(C)C(=O)Cc2ccccc2)OCCCC[C@H](C)Oc2ccc(NC(=O)Nc3ccc4c(c3)OCO4)cc2C1=O	-9.7	13.6[16.7 µM]
COc1ccc(S(=O)(=O)Nc2ccc3c(c2)C(=O)N([C@@H](C)CO)C[C@@H](C)[C@@H](CN(C)Cc2ccc(Cl)c(Cl)c2)O3)cc1	3.1	-20.8[16.7 µM]
CC(=O)N(C)C[C@H]1Oc2ncc(-c3cncnc3)cc2C(=O)N([C@H](C)CO)C[C@H]1C	-16.0	0.0[16.7 µM]
COc1ccc(S(=O)(=O)Nc2ccc3c(c2)CC(=O)N([C@H](C)CO)C[C@@H](C)[C@@H](CN(C)S(=O)(=O)c2ccc(C)cc2)O3)cc1	3.6	-43.7[16.7 µM]
C[C@@H]1CN([C@@H](C)CO)C(=O)c2cccc(NC(=O)C3CC3)c2O[C@@H]1CN(C)Cc1ccncc1	14.3	-27.2[16.7 µM]
O=C(C[C@H]1C[C@@H]2c3cc(NC(=O)Nc4ccccc4F)ccc3O[C@@H]2[C@@H](CO)O1)NCc1ccc(Oc2ccccc2)cc1	-14.0	5.1[16.7 µM]
O=C(Nc1cccc(Cl)c1)N[C@@H]1CC[C@@H](CCNC(=O)C2CCCC2)O[C@@H]1CO	2.7	-11.3[16.7 µM]
C[C@H](CO)N1C[C@H](C)[C@H](CN(C)Cc2ccncc2)OCCCC[C@H](C)Oc2ccc(NC(=O)NC3CCCCC3)cc2C1=O	10.4	-19.7[16.7 µM]
